Source: PubChem BioAssay (National Center for Advancing Translational Sciences (NCATS))
HSD17B inh = inhibitors of human HSD17B10 dehydrogenase | Q99714 | recombinant HSD17B10, NADH fluorescence kinetic; many of its hits are not listed in these tables | Potency, µM (highest dose often 57.1 µM), for the others: at the top dose activity change, negative = inhibition, usual class: inhibitors | 75,000 tested, 7.6% active | AID 893; active = well fitted inhibition curve with a large enough effect; inconclusive = small, poorly fitted or top-dose-only effect; inactive = no such curve, though single readings can be large or run the other way;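 note: the protocol describes HADH2 (HSD17B10) and not the HSD17B4 of the title; nearly all actives have a fitted effect of over 70% in size; most hits overshoot -100% by far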
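Enzyme plus compound, 15 min room temperature; substrate mix added (NAD+ 1 mM, beta-hydroxybutyryl-CoA 90 uM final); plates read kinetically for NADH fluorescence. HADH2 was His-tagged, E. coli-derived, 20 nM.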
Numbers without * were called inactive; ? = inconclusive; [ ] = another dose, or the depositor's remark. % is set by controls: 0 for no effect and ±100 for the full control effect; potency is the fitted concentration of half-maximal effect. These rows are one share of the data (hit frequency here may not be typical).

SMILES	HSD17B inh
CCCn1c(=O)c(C(=O)NCc2ccc(OC)c(OC)c2)c(O)c2ccccc21	4.8%
CCOC(=O)c1cnc(SC2CCc3ccccc3C2=O)nc1N (centres undefined)	-21.8%
COC(=O)c1ccc(CSc2nc3ccccc3c(=O)n2Cc2ccco2)o1	-7.0%
CCOC(=O)c1cc2sc(C)cc2n1CC(=O)Nc1ccc2c(c1)OCCO2	-4.1%
O=C(NC1C=CS(=O)(=O)C1)c1sc2ccccc2c1Cl (centres undefined)	3.3%
COc1cc(OC)cc(C(=O)N2CCN(Cc3ccccc3C(F)(F)F)CC2)c1	-4.9%
CN(C)/C=N/c1cc(=O)[nH]c(=O)n1CC1CC1	-3.6%
Cc1ccc(-n2nnc3c(=O)n(CC(=O)N4CCC(C)CC4)cnc32)cc1	0.9%
COC(=O)c1cc(=O)[nH]c(=O)[nH]1	-2.9%[11.4 µM]
CC(=O)OCCn1c(Br)nc2c1c(=O)[nH]c(=O)n2C	2.1%
CC1Cc2nc(SCC(N)=O)n(Cc3ccccc3)c(=O)c2S1 (centres undefined)	15.1%
CCN(CC)S(=O)(=O)c1ccc(NCc2ccccc2)nc1	-3.4%
COc1ccc(N2C(=O)C3CC(C)=C(C)CC3C2=O)c(OC)c1 (centres undefined)	-0.4%
CCn1cnc2c1c(=O)n(CC(=O)Nc1cc(C)on1)c(=O)n2Cc1ccccc1	-1.2%
CN1C(=O)CS(=O)c2ccc(C(=O)NCCC3=CCCCC3)cc21 (centres undefined)	-0.4%

In a second layout: results already given.
structure,HSD17B inh
O=C(NC1C=CS(=O)(=O)C1)c1sc2ccccc2c1Cl (centres undefined),3.3%
CC1Cc2nc(SCC(N)=O)n(Cc3ccccc3)c(=O)c2S1 (centres undefined),15.1%

(further entries)
SMILES	HSD17B inh
Cc1ccc2c(c1)nc(NCCO)n2C	?
Cc1ccco1	4.8%
CCOC(=O)/C=C/S(=O)(=O)c1ccc(NC(C)=O)cc1	-1.9%
O=C1CC(c2ccc(F)cc2)CC(O)=C1C=NCCN1CCN(C(=O)Nc2ccccc2)CC1 (centres undefined)	8.7%
CCCCOc1ccc(CSc2nncn2N)cc1	2.5%
Cc1[nH]c2ccccc2c1CCC(N)=O	-9.9%
COc1ccccc1N1CCN(Cc2ccco2)CC1	0.9%
S=c1[nH]nc(-c2ccncc2)n1CC1CCCO1 (centres undefined)	2.8%
CCNC(=O)N1CCNC(=O)C1CC(=O)Nc1ccc(C(=O)OCC)cc1 (centres undefined)	8.8%
COc1ccc(NC(=O)CSc2nnc(-c3cccs3)n2-c2ccccc2)cc1	-15.3%
CN(C)Cc1cc(O)c(O)c(CN(C)C)c1	-14.7%[11.4 µM]
Nc1nnc(N2CCCCC2)s1	-4.8%
CCOc1ccccc1NC(=O)NC1(C(=O)N2CCOCC2)CCCCC1	1.6%
CCCn1c(CN2CCCCC2C)nc2c1c(=O)n(C)c(=O)n2C (centres undefined)	10.2%
CC(C)CC(NC(=O)CN)C(=O)NC(Cc1ccccc1)C(=O)O (centres undefined)	-2.4%

Not a retest: 7 of the compounds above.
SMILES	HSD17B inh
COc1ccccc1N1CCN(Cc2ccco2)CC1	0.9%
S=c1[nH]nc(-c2ccncc2)n1CC1CCCO1 (centres undefined)	2.8%
CCNC(=O)N1CCNC(=O)C1CC(=O)Nc1ccc(C(=O)OCC)cc1 (centres undefined)	8.8%
COc1ccc(NC(=O)CSc2nnc(-c3cccs3)n2-c2ccccc2)cc1	-15.3%
CN(C)Cc1cc(O)c(O)c(CN(C)C)c1	-14.7%[11.4 µM]
Nc1nnc(N2CCCCC2)s1	-4.8%
CCOc1ccccc1NC(=O)NC1(C(=O)N2CCOCC2)CCCCC1	1.6%

Later entries:
SMILES	HSD17B inh
COc1cc2c(cc1OC)C(C(=O)N1CCN(c3ccccn3)CC1)C(c1cccs1)N(C)C2=O (centres undefined)	?
COc1ccccc1-c1nnc(SCC(=O)NCc2c(C)c(Cl)cc(C(C)C)c2O)o1	10.0%
CCOC(=O)CCCCC(=O)c1[nH]c(=O)[nH]c1CSc1nc(C)cc(C)n1	-6.1%
Cc1onc(-c2c(Cl)cccc2Cl)c1C(=O)N[C@H]1C(=O)N2[C@H]1SC(C)(C)[C@H]2C(=O)O	-3.2%[25.6 µM]
CCOc1ccc(NC(=O)CCC(=O)n2nc(C)cc2C)cc1	14.4%
C=CCc1ccc(OCC(O)CN2CCCCC2C)c(OC)c1 (centres undefined)	-1.0%
CCOc1cc(C2NC(=O)NC(O)(C(F)(F)F)C2C(=O)c2ccccc2)ccc1OC (centres undefined)	4.9%
CC(C)CNS(=O)(=O)c1ccc(CCC(=O)N2CCOCC2)cc1	3.7%
CCC(C)(C(=O)NC1CCCCC1)N(C)C(=O)c1ccccn1 (centres undefined)	6.5%
Cn1ncc(C#N)c1NC(=O)c1nn2cccnc2c1Cl	-1.1%
COc1cc(-c2coc3cc(OC)c(OC)c(OC)c3c2=O)cc(OC)c1OC	6.7%
O=C(OCCOCCN=C1NS(=O)(=O)c2ccccc21)C1CC(=O)N(c2ccccc2)C1 (centres undefined)	-0.2%
COc1ccc(S(=O)(=O)Nc2cc(C)c(O)c(S(=O)(=O)c3ccccc3)c2)cc1	-10.8%
CC(=O)c1cnc2cc(-c3ccccc3)nn2c1C	31.6µM*
O=C(Nc1cnn(Cc2ccc(Cl)cc2)c1)c1cnccn1	-5.2%

3 entries picked at random from those above, as already listed:
SMILES	HSD17B inh
CCOC(=O)CCCCC(=O)c1[nH]c(=O)[nH]c1CSc1nc(C)cc(C)n1	-6.1%
CCOc1cc(C2NC(=O)NC(O)(C(F)(F)F)C2C(=O)c2ccccc2)ccc1OC (centres undefined)	4.9%
CCOc1ccc(NC(=O)CCC(=O)n2nc(C)cc2C)cc1	14.4%

Next section.
SMILES	HSD17B inh
CC1CCCCN1CCNC(=O)CC1Oc2ccccc2NC1=O (centres undefined)	-0.2%
COC(=O)NCc1cccc(CNC(=O)OC)c1	17.8%
Cc1noc(C(=O)Nc2c(C)n(C)n(-c3ccccc3)c2=O)c1Cl	2.0%
Cc1nnc(N(C(=O)c2cnccn2)c2ccccc2)s1	-4.2%
COC(=O)CC[C@@H](C(=O)O)N1C(=O)c2ccccc2C1=O	2.3%
O=C(NCc1ccccn1)c1ccc2ccccc2n1	4.3%
Nc1nc(SCC(=O)c2ccc(Br)cc2)c2[nH]cnc2n1	4.4%[11.4 µM]
O=S1(=O)c2cccc3cccc(c23)N1Cc1nnc(-c2ccccc2Br)o1	?
COc1ccc(C(=O)NCc2nnc(SCC(=O)Nc3cc(C)cc(C)c3)o2)cc1OC	-7.2%
CCN1CCN(c2ncnc3c2nnn3Cc2ccccc2)CC1	-8.6%
COC(c1ccccc1)C(C)C(OC)C(C)C(OC)C(C)C(C)=O (centres undefined)	5.5%[11.4 µM]
COc1ccc(OC)c(NC2=NC3(CCCCC3)N=C(N)N2)c1	18.7%
O=C(NC1(C(F)(F)F)C(=O)Nc2c1c(=O)[nH]c(=O)n2Cc1ccco1)C1CC1 (centres undefined)	5.3%
Cn1cnc2c(NC3CCCC3)ncnc21	-7.6%
COC(=O)COc1ccc(S(=O)(=O)NCc2cccnc2)cc1C	12.1%
COc1ccc2cc(C(=O)N3CCCCCC3)sc(=O)c2c1OC	-2.3%
Cc1cc(C)n(-c2nc3ccccc3nc2N2CCN(C(=O)c3ccc(Cl)cc3)CC2)n1	-1.7%
O=C(NCc1ccccn1)[C@H]1C[C@@H]1[C@H](NP(=O)(c1ccccc1)c1ccccc1)c1ccccc1	7.6%
Cc1[nH]nc2c1C1(C(=O)N(Cc3ccc(Cl)cc3)c3ccccc31)C(C#N)=C(N)O2 (centres undefined)	-17.1%
CN(C)Cc1ccccc1-c1cncnc1NC1CC1	-3.7%
C/C(N)=C(/C#N)C(=O)CSc1nnc(SCc2ccc(Cl)cc2)s1	-8.3%
COC(=O)C(CCSC)NC(=O)CNC(=O)C1CCCCC1 (centres undefined)	6.9%
COc1cccc(C2CC(c3ccc(F)cc3)Nc3nc(N)nn32)c1 (centres undefined)	10.1%
CC(=O)O[C@H]1CC[C@@]2(C)C(=CC[C@@H]3[C@H]4CC[C@@H]([C@H](C)C(=O)O)[C@]4(C)CC[C@H]32)C1	9.4%[11.4 µM]
Cc1ccc(-n2c(Cc3cccn3C)nnc2SCC(=O)NCc2ccc3c(c2)OCO3)cc1	-7.4%
CCOc1ccc(OC(=O)c2cccnc2)cc1	-2.2%
CC(=O)OC[C@@H]1O[C@@H](O/N=C2/C[C@@H](O)[C@@H](O)[C@@H]3[C@@H]4C(=O)N(Cc5ccc6c(c5)OCO6)C(=O)[C@H]4CC[C@@H]23)[C@H](OC(C)=O)[C@H](OC(C)=O)[C@@H]1OC(C)=O	-6.4%[11.4 µM]
CCOC(=O)C1CCCN(Cc2nc(N)nc(Nc3ccc(C)cc3)n2)C1 (centres undefined)	1.1%
COc1ccc2c(c1)c1nnc(SCC(=O)N3C(C)CCCC3C)nc1n2C (centres undefined)	-0.6%
CSc1ncnc2c1ncn2[C@@H]1O[C@@H](CO)[C@H](O)O[C@@H]1O	10.7%[11.4 µM]
O=C(CN1C(=O)c2ccccc2S1(=O)=O)NC1CCCCCC1	2.8%
CCSc1nc(N2CCOCC2)c2ccccc2n1	4.2%
O=C(Nc1ccc(N2CCOCC2)cc1)c1ccc2nc(-c3ccco3)c(-c3ccco3)nc2c1	-5.6%
Cc1cc(NC(=O)CCS(=O)(=O)c2nc(-c3ccccc3)cc(C(F)(F)F)n2)no1	-24.5%
COc1ccc(C2C(C(=O)N3CCOCC3)c3ccccc3C(=O)N2c2ccc(OC)cc2)cc1 (centres undefined)	-1.5%
CCC(C)c1c(O)nc(SCC(=O)N2CCOCC2)[nH]c1=O (centres undefined)	11.0%
Cc1ccc2c(c1)N(CC(=O)N(Cc1ccc3c(c1)OCO3)CC1CCCO1)C(=O)C(C)O2 (centres undefined)	-0.4%
CCCC(=O)c1cc2cc(Cl)ccc2oc1=O	5.2%
COc1ccc(CNC(=O)CSc2nc3nc(C)cc(C)n3n2)cc1	1.6%
CN1CCC(NC(=O)c2cccs2)CC1	0.2%
O=C1Nc2c(Br)cc(Br)cc2C1(O)N1CCOCC1 (centres undefined)	0.8%
CC1Cc2nc(SCC(=O)NCC3CCCO3)n(Cc3ccccc3)c(=O)c2S1 (centres undefined)	-3.4%
Cc1nc(SCC(=O)N2CCC(C(N)=O)CC2)n[nH]1	-3.7%
CCC1=C2CC[C@H]3C(=O)N(c4ccccc4)C(=O)[C@H]3[C@H]2[C@@]2(Cc3ccccc3)C(=NCCc3c[nH]c4ccccc34)OC(=O)N2C1=O	25.1%
O=C(CSc1nc2ccccc2s1)Nc1ncccn1	-18.2%
CCOc1ccccc1NC1c2ccccc2C(=O)N1c1ccc(C)cn1 (centres undefined)	-3.9%
COc1cc(C(=O)N2CCC(NC(=O)C(Cc3ccc(C)cc3)NC(C)=O)CC2)cc(OC)c1OC (centres undefined)	0.4%
CN(c1cccc(NS(=O)(=O)c2cccs2)c1)S(C)(=O)=O	7.8%
CC(C)NC(=O)C1CCN(Cc2cnn(-c3ccccc3)c2-n2cccc2)CC1	13.7%
COc1cc(C2NC(=O)NC(C)=C2C(=O)OCc2ccc(C)cc2)cc(OC)c1O (centres undefined)	-8.0%
COc1ccc(OC)c(NC(=O)CSc2nnc(Cc3cccn3C)n2CCc2ccccc2)c1	-10.6%
O=C(Nc1ccccc1)N1CC[C@@]2(CCCN(C(=O)c3cccc(F)c3)C2)C1	2.1%
CC12C=CC3(CN(Cc4ccccc4)C(=O)C3C1C(=O)NC1CC1)O2 (centres undefined)	10.4%
Cc1[nH]c(=S)[nH]c(=O)c1Cc1ccccc1	-10.6%
CC1(C)CC(=O)C=C(Nc2cccc(O)c2)C1	-17.0%
CC(C)COC(=O)CCn1[nH]c(=O)c2ccccc2c1=O	-15.1%
C[C@@H]1O[C@@H](O[C@H]2[C@H](Oc3cc(O)c4c(c3)O[C@H](c3ccc(O)cc3)CC4=O)O[C@H](CO)[C@@H](O)[C@@H]2O)[C@H](O)[C@H](O)[C@H]1O	1.6%
Nn1cc(-c2ccccc2)nc1SCC(=O)NCCN1C(=O)CSC1=O	12.2%
COc1cccc(Nc2c(F)c(OC)c(F)c(F)c2C(=O)O)c1	1.6%
COc1ccc(CCNc2cc(=O)[nH]c(N)n2)cc1	-4.3%

(listing goes on)
SMILES	HSD17B inh
CC(C)c1cc(C(F)(F)F)n2nc(C(=O)Nc3ccc4c(c3)OCO4)cc2n1	1.2%
C=CCNC(=O)c1ccccc1NC(=O)Nc1ccccc1	22.1%
COc1ccc(Br)cc1-c1noc(-c2ccccc2)n1	-2.7%
CCN(CC)C(=O)c1ccc(C)c(Br)c1	15.1%
O=C(COC(=O)CCC(=O)c1cccs1)Nc1ccc(S(=O)(=O)N2CCOCC2)cc1	-2.8%
COc1ccc(C(=O)N2CCC3(CCCN(C(c4ccccc4)c4ccccc4)C3)CC2)cc1	1.8%
CCCOC(=O)c1ccc(NC(=O)c2ccoc2C)cc1	-14.6%
O=C(c1ccco1)N1CCN(C/C=C/c2ccccc2)CC1	-0.6%
COc1cccc(-n2nnc3c(=O)n(Cc4cccc(C)c4)cnc32)c1	-4.4%
O=C(CSc1n[nH]c(-c2cccs2)n1)NCc1cccs1	-1.5%
O=C1Nc2cc(Cl)ccc2C1(N1CCNCC1)C(F)(F)F (centres undefined)	0.0%
Cn1nnnc1SCCNCc1cccnc1	2.4%
O=C(Cn1cc2c(n1)CCCCC2)Nc1ccc(F)cc1F	7.1%
CS(=O)(=O)NC1c2cccc3cccc(c23)C1Sc1nncn1/N=C/c1ccco1 (centres undefined)	-13.2%
Cc1ccc(NC(=O)CS(=O)CC(=O)NC2CCN(Cc3ccccc3)CC2)c(C)c1 (centres undefined)	16.0%
COc1ccc2oc(-c3ccccc3)c(C(N)=O)c2c1	25.1µM*
Cc1occc1C(=O)Nc1cc(C(C)(C)C)on1	-2.6%
